Assay outcomes deposited in PubChem BioAssay by Broad Institute.
rRNA inh HTS: inhibits bacterial ribosomal RNA function over humanized ribosomes; AID 720706; GFP signal change (wild-type ribosome), % (concentration not given with the values); actives 1.6% (n = 350,000); E. coli WT GFP vs humanized-ribosome RFP mutants, fluorescence, 24 h; active compounds read low; DMSO median 0, no signal -100;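 active = significant combined selectivity score with lowered wild-type GFP, culture density cut under 30%, mutant RFP and density less affected; inactive = any of these conditions unmet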; also: one replicate is shown; some compounds called inactive have numbers as strong as hits
Calb FLC: C. albicans growth modulation with fluconazole | C. albicans CaCi-2 (fluconazole-resistant clinical isolate) + fluconazole, Alamar Blue growth, 48 h | actives 0.57% (n = 300,000) | growth inhibition, % (no concentration beside the values);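 active = most replicates above 75%; inconclusive = exactly half above 75%; inactive = most below 75%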;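 also: all wells also contain fluconazole at 8 µg/ml as a sub-toxic cotreatment; 0% = median of DMSO wells and 100% = median of geldanamycin control wells; wells of about 8 µL received 7.5 nL stock; the first replicate is given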
FGF22 binding: shifts melting point of recombinant human FGF22; recombinant FGF22 thermal shift, SYPRO orange fluorescence; percent of sucrose octasulfate shift, DMSO zero; Q9HCT0; calls only at 9.99 µM; actives 1.5% (n = 340,000);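 active = melting point raised past a set limit in the mean and every replicate; inconclusive = no clear call; three in four hits are not shown here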
Target sequence (Q9HCT0 whole entry, looked up): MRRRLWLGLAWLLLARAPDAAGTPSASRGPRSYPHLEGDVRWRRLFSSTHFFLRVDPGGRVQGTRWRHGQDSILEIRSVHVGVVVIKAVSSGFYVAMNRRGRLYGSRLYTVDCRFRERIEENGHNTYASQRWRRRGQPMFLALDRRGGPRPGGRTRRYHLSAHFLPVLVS
RanGTP-Imp inh: inhibitors of RanGTP-importin-beta interaction, primary screen, biochemical, FRET, CFP-Ran, YFP-importin-beta, homogeneous. cell-free CFP-Ran/YFP-importin-beta FRET ratio. inhibition, % (test concentration not listed). actives 1.1% (n = 300,000). AID 2216;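 active = most replicates above 15%; inconclusive = exactly half above 15%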;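 also: 0% = DMSO wells and 100% = Ran loaded with GDP instead of GTP; wells of about 40 µL received 100 nL stock; the first replicate is given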
ALR inh: human ALR oxidase inhibition via reduced H2O2 | purified ALR, DTT oxidation, H2O2 HRP-luminol luminescence | inhibition, % (concentration not given with the values) | actives 3.8% (n = 290,000) | AID 485317;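 active = mean and each replicate at 75% or more; inconclusive = only one of the two met; inactive = neither met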;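 also: stock transfer was 7.5 nL into about 7.5 µL; 0% = neutral wells and 100% = wells with inactivated enzyme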
Target sequence (P55789 whole entry, looked up): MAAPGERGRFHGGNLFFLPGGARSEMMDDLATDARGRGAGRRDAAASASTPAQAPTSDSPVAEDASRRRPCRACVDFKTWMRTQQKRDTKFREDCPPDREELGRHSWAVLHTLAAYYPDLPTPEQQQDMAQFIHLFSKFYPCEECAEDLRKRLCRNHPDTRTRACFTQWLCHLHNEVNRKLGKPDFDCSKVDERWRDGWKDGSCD
T cruzi inh: blocks replication of Trypanosoma cruzi; T. cruzi beta-gal in NIH3T3, luminescence, 90 h; inhibition, % (no concentration beside the values); actives 1.4% (n = 300,000); AID 1885;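 active = mean inhibition across valid replicates above about 55%, limit read from the data; inconclusive = mean below that limit but half or more replicates reach it; inactive = mean below it, under half of replicates reach it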;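 also: signal also drops with host cell toxicity which is not excluded here; 0% = plate median of DMSO wells and 100% = zero luminescence signal; higher percent means less beta-gal luminescence so fewer parasites; stock transfer was 50 nL into about 50 µL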
Beta apoptosis: blocks beta cell apoptosis. actives 0.8% (n = 300,000). protection from apoptosis, % (concentration not given with the values). INS-1E cytokine-induced death, ATP luminescence, 48 h; percent of positive-control rescue, neutral wells zero;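 active = all replicates at 75% or more, or half of them and the mean; inconclusive = half reach 75% but not the mean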;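 also: 0% = cytokine-treated negative control wells and 100% = positive control rescue; higher means more ATP so stronger rescue from cytokine killing; wells of about 40 µL received 100 nL stock; the first replicate is given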
AF4-AF9 inh: MLL-AF4/AF9 protein interaction inhibition; AlphaScreen, biotin-AF4 peptide binding to FLAG-AF9; actives 0.47% (n = 350,000); inhibition, % at 10 µM; AID 651704;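 active = every replicate reaching a set inhibition limit, whatever the replicate mean, cut at about 25% in these data; inconclusive = mean inhibition reaches that limit but some replicates miss it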;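 also: 0% = plate neutral control median and 100% = total signal loss; the record names both 10 and 1 µM as test concentration; the first replicate is given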
Target sequence (P42568 whole entry, looked up): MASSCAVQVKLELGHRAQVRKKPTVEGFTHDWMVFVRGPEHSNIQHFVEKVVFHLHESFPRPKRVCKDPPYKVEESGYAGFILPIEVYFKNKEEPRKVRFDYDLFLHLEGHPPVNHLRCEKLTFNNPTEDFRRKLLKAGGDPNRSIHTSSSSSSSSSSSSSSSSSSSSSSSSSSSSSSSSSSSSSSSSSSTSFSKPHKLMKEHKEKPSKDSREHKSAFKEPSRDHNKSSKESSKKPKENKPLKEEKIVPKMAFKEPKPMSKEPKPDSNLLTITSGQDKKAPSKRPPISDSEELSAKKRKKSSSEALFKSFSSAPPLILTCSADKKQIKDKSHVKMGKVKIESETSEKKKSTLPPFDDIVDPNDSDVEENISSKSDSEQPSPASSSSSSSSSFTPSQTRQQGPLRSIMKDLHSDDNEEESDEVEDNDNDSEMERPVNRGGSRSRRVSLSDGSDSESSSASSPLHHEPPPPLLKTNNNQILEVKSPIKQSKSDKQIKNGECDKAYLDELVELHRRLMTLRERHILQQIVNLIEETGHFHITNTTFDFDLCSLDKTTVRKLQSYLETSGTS
rRNA inh HTS OD600: further read-out of rRNA inh HTS, marked with its call; OD600 change, %; measured here: OD600 growth;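 optical density of the mix in the first replicate; 0 = DMSO median and -100 = no signal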
rRNA inh HTS RFP: also measured in rRNA inh HTS; calls as there; RFP signal change, %; measured here: RFP humanized mutant strains;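 first replicate; 0 = DMSO median and -100 = no signal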
* marks the source's active call; other numbers are inactive results; i = inactive; ? = inconclusive; . = not tested or not shown.

SMILES | rRNA inh HTS | rRNA inh HTS OD600 | rRNA inh HTS RFP | Calb FLC | FGF22 binding | RanGTP-Imp inh | ALR inh | T cruzi inh | Beta apoptosis | AF4-AF9 inh
COc1cccc(CC2(CO)CCCN(Cc3cn[nH]c3-c3cc(C)ccc3C)C2)c1 (centres undefined) | 0 | 8 | 1.0 | 4 | i | 1.1 | -4 | 21 | 1 | 3.5
COCCN(C(=O)COC(=O)c1cnc(C)cn1)c1c(N)n(Cc2ccccc2)c(=O)[nH]c1=O | 1 | 11 | -0.9 | 0 | i | -1.5 | . | -1 | -4 | -2.0
CCOC(=O)c1[nH]c2c(c1C)C(=O)CC(c1ccc(OCC)c(OC)c1)C2 (centres undefined) | . | . | . | 56 | . | -1.4 | . | 8 | 3 | .
COc1ccc(-c2onc(C)c2-c2ccc(C(=O)OC(C)C)o2)c(O)c1 | . | . | . | -5 | . | 0.3 | 7 | -8 | 0 | 6.0
O=C1c2cccc3c2N(CCC3)C(=O)C1(F)c1ccccc1 (centres undefined) | -17* | -1.5* | 6.5* | 6 | i | 2.8 | 1 | 2 | -2 | 2.9
CCCOc1ccc(C(=O)NC(=S)N2CCN(c3cc4c(cc3F)c(=O)c(C(=O)O)cn4CC)CC2)cc1 | -54 | -76 | -17 | -10 | i | 5.9 | . | -31 | 4 | -1.6
COc1ccccc1NC(=O)NNC(=O)CCc1ccccc1 | 9 | 6 | 1.5 | 0 | i | -2.7 | -7 | -3 | 1 | -1.3
COCCCNC(=O)C(=O)N/N=C/c1cc2c(cc1Br)OCO2 | 0 | 4 | -2.5 | 9 | i | -1.0 | 2 | -1 | . | -0.9
CCC(=O)c1ccc(OCC(=O)OC(C)C(=O)NCc2ccc3c(c2)OCO3)cc1 (centres undefined) | 3 | 13 | 2.2 | -1 | i | 0.1 | . | -5 | 3 | -2.6
Cc1c(CCOC(=O)c2ccccc2)sc[n+]1Cc1ccccc1 | -11 | -1 | -8.2 | 2 | i | 1.8 | -2 | 7 | -17 | -1.4
O=C(CC1C(=O)NCCN1C/C=C/c1ccccc1)NCCc1cccnc1 (centres undefined) | 3 | 7 | -2.6 | -4 | i | 1.7 | -6 | -25 | . | 0.6
Cc1nc2ccccc2c(=O)n1CCN1CCOCC1 | 4 | 2 | -2.5 | -6 | i | 0.8 | 0 | -18 | -6 | 3.5
BrC(/C=N/Nc1nc(N2CCOCC2)nc(N2CCOCC2)n1)=C/c1ccccc1 | . | . | . | 9 | . | 7.5 | -8 | -2 | 3 | .
CC(=O)NS(=O)(=O)c1ccc(NC(=O)C(Sc2ccccc2)c2ccccc2)cc1 (centres undefined) | . | . | . | 29 | . | 2.4 | 4 | -13 | -2 | .
CCOc1ccccc1C(=O)NC(C(=O)OCC(=O)Nc1nnc(-c2ccccc2)o1)C(C)C (centres undefined) | . | . | . | 5 | . | 1.2 | 66 | -10 | 2 | .
O=C(O)c1cccc(NC(CNS(=O)(=O)c2ccc(Cl)cc2)c2ccccc2)c1 (centres undefined) | -1 | -3 | 5.0 | -3 | i | -4.4 | -20 | 6 | -8 | 0.4
Cc1ccccc1N1CCN(C2CCCN(C(=O)c3ccsc3)C2)CC1 (centres undefined) | -1 | -10 | 1.6 | 0 | i | -4.4 | 42 | 6 | -4 | 1.6
Cc1ccc(/C=C2/CCc3c([nH]c4ccccc34)C2=O)cc1 | . | . | . | -12 | . | -4.6 | -7 | 2 | 6 | .
O=C(NCc1ccccc1)c1cc(S(=O)(=O)N2CCCCC2)ccc1N1CCOCC1 | -18* | -5.8* | 2.1* | -5 | . | 0.5 | -36 | 5 | 3 | -1.4
COc1cc(O)oc1C=Nc1ccc(Oc2ccccc2)cc1 | . | . | . | -13 | . | -1.1 | 37 | 16 | . | .
Cc1c(OC(C)C(=O)N[C@@H](Cc2ccccc2)C(=O)O)ccc2c3c(c(=O)oc12)CCCC3 (some centres undefined) | . | . | . | -6 | i | -1.2 | 87* | 2 | . | -2.1
CC1Cn2c(nc3sc4c(c3c2=O)CC(C)(C)OC4)N1CCO (centres undefined) | 13 | 3 | -1.5 | 3 | i | 0.0 | -3 | -5 | -4 | -0.7
CCOC(=O)c1ccc(-c2c(-c3ccc4c(c3)OCO4)noc2-c2ccsc2)cc1F | 6 | -2 | 8.3 | 2 | i | 2.8 | -2 | 27 | 5 | 0.4
O=C(NCCCN1CCOCC1)c1onc(CSc2nc3ccccc3[nH]2)c1C(=O)NCCCN1CCOCC1 | 8 | 16 | -5.7 | -5 | i | 3.7 | 58 | -26 | -6 | 3.1
Cc1ccc(-c2cc(C(=O)Nc3ccc(S(=O)(=O)Nc4cc(C)on4)cc3)c3ccccc3n2)c(C)c1 | . | . | . | 15 | . | -1.4 | 19 | -14 | -4 | .
O=C(NCc1ccccc1)C1CCCN(S(=O)(=O)c2cccc3nonc23)C1 (centres undefined) | . | . | . | 1 | . | 0.1 | -6 | 11 | 0 | .
Cc1ccc2c(c1)COc1c3ccc(C(=O)NCCO)cc3nn1-2 | -25 | -28 | -12 | -4 | i | -1.5 | 3 | -14 | 2 | -2.6
O=C(NCc1ccc2c(c1)OCO2)C1CCCCC1 | 6 | 4 | -2.1 | -6 | i | 1.0 | -2 | -4 | 5 | -3.3
COc1ccc(OC)c(S(=O)(=O)N2CCCC(C(=O)NCc3ccncc3)C2)c1 (centres undefined) | 4 | 3 | 1.0 | -5 | i | -1.9 | 1 | 8 | -5 | 2.5
Nc1n[nH]c(-c2ccc(F)cc2)n1 | . | . | . | ? | . | 0.9 | -12 | -11 | -11 | .
CCC(CCC(=O)Nc1ccc(S(N)(=O)=O)cc1)C(=O)O (centres undefined) | . | . | . | 4 | . | -3.9 | -2 | -5 | 10 | .
Cc1ccc(S(=O)(=O)N2CCN(C(=O)COC(=O)c3cnc(C)cn3)CC2)c(C)c1 | 0 | 3 | 0.5 | 1 | i | -0.9 | -6 | -2 | -1 | 0.5
Cc1cccc(C(=O)Nc2nnc(-c3ccco3)o2)c1 | -52 | -79 | -27 | -2 | i | 2.9 | -1 | -7 | . | 5.1
O=C(c1ccco1)N1CCN(C(=O)C2CC(c3ccc(F)cc3)=NO2)CC1 (centres undefined) | 11 | 11 | 0.7 | 13 | i | 9.9 | -14 | -12 | 1 | -3.9
O=C(Cn1c(NCCO)nc2ccccc21)N1CCN(Cc2ccccc2)CC1 | -2 | 3 | -1.2 | 11 | i | 6.2 | -11 | -6 | -4 | 3.0
CC(C)(C)c1ccc(C(=O)Nc2nnc(C3=COCCO3)o2)cc1 | -13 | -50 | 0.5 | . | i | . | 20 | 25 | -1 | 1.8
CCN(CC)Cc1c(O)ccc2cc(-c3nc4ccccc4n3C)c(=O)oc12 | 6 | 13 | -1.8 | 0 | i | 132* | 5 | 11 | -3 | -4.2
Cc1cccc(C)c1NC(=O)COC(=O)c1cccnc1 | 10 | 10 | -1.6 | 1 | i | 0.0 | -23 | 5 | -5 | -2.1
Cn1c(-c2ccccc2)n[nH]c1=S | 3 | 0 | 1.8 | 1 | i | -0.7 | 93* | -6 | -6 | -1.5
CC1CCN(CCCCOc2ccc(Cl)cc2)CC1 | . | . | . | -5 | . | 3.6 | 1 | -13 | 3 | .
Cc1cnc(C(=O)OCc2ccc(Br)cc2F)cn1 | 3 | 12 | 0.9 | -4 | i | -1.6 | 4 | -6 | . | -21
COc1ccc(-c2cc(C(=O)N3CCCCC3)no2)cc1OC | -23* | -14* | -2.1* | -19 | i | -1.1 | -6 | 3 | -4 | 8.1
O=C(N/N=C/c1ccc([N+](=O)[O-])s1)c1ccncc1 | . | . | . | 3 | . | -5.5 | -28 | 56* | -52 | .
COc1cccc(CNCc2cccnc2)c1OCc1ccccc1 | -2 | -8 | -0.9 | -3 | i | ? | -18 | -4 | -6 | -2.0
CC(C)NC(=O)COc1ncnc2sccc12 | . | . | . | ? | . | -2.1 | -14 | -5 | 3 | .
CC(C(=O)Nc1nncs1)N1C(=O)C2C3C=CC(C3)C2C1=O (centres undefined) | 2 | 7 | -0.2 | -7 | i | 0.9 | 0 | -15 | 1 | -0.1
CC(C)Oc1ccc(CC2CC(=O)NC2=O)cc1 (centres undefined) | . | . | . | -8 | . | -1.5 | -4 | 6 | -7 | .
CCOC(=O)Cc1csc(NC(=O)c2ccc(S(=O)(=O)N(CCOC)CCOC)cc2)n1 | 1 | 2 | 3.1 | 12 | i | -0.5 | -4 | -3 | 4 | -1.1
CCCCCSc1nc2c(c(=O)[nH]c(=O)n2C)n1C | 2 | 4 | -0.6 | -1 | i | 0.1 | -13 | -3 | 0 | 14
O=C(Nc1ccc2c(c1)OCO2)N1CCN(c2ccc(F)cc2)CC1 | -3 | 1 | -2.4 | -3 | i | 7.3 | 58 | -7 | -5 | 0.0
CCc1ccnc(NC(=O)Nc2ccc(OCc3ccccc3)cc2)c1 | . | . | . | -8 | . | 5.1 | 0 | 8 | 0 | .
Cc1ccc(C(=O)Cn2nnc3ccccc32)cc1[N+](=O)[O-] | . | . | . | 7 | i | 0.7 | -2 | 2 | -6 | 2.6
CC(Oc1ccccc1)C(=O)N=C1SC2CS(=O)(=O)CC2N1Cc1ccc(F)cc1 (centres undefined) | -7 | -19 | -4.4 | 2 | i | -5.8 | -2 | 10 | -2 | 0.8
CS(=O)(=O)c1ccc(Cl)c(NC(=O)COC(=O)CCCN2C(=O)c3cccc4cccc(c34)C2=O)c1 | 5 | 8 | 0.1 | -4 | i | 25* | 10 | -4 | -6 | 0.1
O=C(Nc1cccnc1)c1ccc(-c2ccc(Cl)cc2)o1 | -2 | 14 | -0.9 | -1 | i | -3.7 | -7 | 14 | . | -1.1
O=C(O)c1ccn(CSc2cc(Cl)ccc2Cl)n1 | -5 | -3 | -0.3 | . | i | . | 0 | . | -6 | 1.2
C/C(=N\N=C1\NC(=O)C(CC(=O)Nc2ccccc2F)S1)C1CCCCC1 (centres undefined) | 1 | -10 | -1.8 | 0 | i | -0.3 | -5 | -6 | -2 | -7.4
O=C(Cc1ccccc1)NCCc1c[nH]c2ccccc12 | -4 | -5 | 0.4 | 0 | i | -1.9 | -2 | -8 | -2 | -0.8
Cc1cc(/C=N/n2cnnc2)c(O)c([N+](=O)[O-])c1 | . | . | . | -5 | . | ? | 12 | 24 | -2 | .
Cn1nnc(NC(=S)NC(=O)c2cc3ccccc3o2)n1 | 11 | -2 | -11 | 6 | i | ? | 2 | -7 | -3 | -13

These rows are one share of the data; the hit share may differ from the screen's.
